MT1-MMP reporter: inhibitors of MT1-MMP promoter transcription, cell-based, luciferase reporter, luminescence (AID 618); MT1-MMP promoter luciferase reporter cells, luminescence; calls from a first round at 10 µM; hits with a dose series show EC50 in µM; 0.62% of 87,000 active;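 active means over half of the reporter light lost at 10 µM or EC50 under 50 µM; inactive means the rest and hits that failed the dose series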;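 further: actives suppress MT1-MMP promoter-driven transcription so potencies describe inhibitors; HT1080 fibrosarcoma cells; overnight exposure; toxic or luciferase-blocking compounds were not removed from the actives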
WNV NS2B-NS3 inh: inhibitors of West Nile virus NS2B-NS3 protease; 0.18% of 65,000 active; AID 577; z-score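 (tested at a level between 10 and 100 µM)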; P06935; WNV NS2B-NS3 protease, fluorogenic substrate Ex360/Em465; active compounds read low;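 active means z-score at -3 or under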;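 further: score is relative to mean and spread of the compound wells of a plate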
Target sequence (P06935 1371-1501 limits assumed): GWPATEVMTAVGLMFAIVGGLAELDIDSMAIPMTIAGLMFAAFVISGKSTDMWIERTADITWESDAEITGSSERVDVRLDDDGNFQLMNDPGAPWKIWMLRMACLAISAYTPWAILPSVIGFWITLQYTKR
Target sequence (P06935 1502-1679 limits assumed): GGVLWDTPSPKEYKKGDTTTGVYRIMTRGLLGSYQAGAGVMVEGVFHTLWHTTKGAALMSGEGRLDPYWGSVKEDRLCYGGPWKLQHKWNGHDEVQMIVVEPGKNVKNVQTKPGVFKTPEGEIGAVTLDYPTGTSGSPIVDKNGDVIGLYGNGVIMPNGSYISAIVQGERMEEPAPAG
Hsc70 ATP site: small molecules displacing fluorescent ligand from Hsc70 – biochemical, fluorescence polarization, primary screen (AID 568) | Hsc70 fluorescence polarization, probe displacement; higher % means a stronger effect; strong numbers were not always called active | displacement, % at 20 µM, or IC50 in µM where a hit was titrated | 83,000 tested, under 10 active;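 active means displacement above 50% without optical interference and an IC50 on retest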;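 further: ATPase domain with a fluorescein-tagged ATP probe; 0% = vehicle and 100% = excess ADP; read after one hour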
Starred values were filed as active, the others as inactive; i = inactive; . = no result given.

mol	MT1-MMP reporter	WNV NS2B-NS3 inh	Hsc70 ATP site
COc1ccc(C(CNC(=O)CN2C(=O)NC3(CC(C)CC(C)(C)C3)C2=O)N2CCOCC2)cc1 (stereo not given)	i	0.87	-2.3%
O=C(NCCC1=CCCCC1)C1CCN(S(=O)(=O)c2cccc3nsnc23)CC1	i	0.05	-3.6%
O=C(c1cc2n(n1)C(C(F)(F)F)CC(c1ccc(Cl)cc1)N2)N1CCCC1 (stereo not given)	i	-0.92	2.9%
CN(C)c1ccc(NC(=O)Oc2ccccc2)cc1	i	.	5.1%
c1ccc(Nc2cccc(Nc3ccccc3)n2)cc1	i	.	-6.7%
COc1cc(C(=O)NCCc2nc3ccccc3n2C)cc(OC)c1OC	i	.	3.8%
Cn1c(=O)n(-c2ccccc2)c(=O)c2c3c(sc21)COC(C)(C)C3	i	-0.32	-0.2%
O=C(NCc1ccc2c(c1)OCO2)c1cc2c(s1)CSC2	i	0.3	4.9%
COc1ccc(S(=O)(=O)N2CCC(C(=O)Nc3nnc(CCN4CCCCC4)s3)CC2)cc1	i	0.4	1.2%
CCC(c1nnnn1C1CCCCC1)N1CCN(C2CCCC2)CC1 (stereo not given)	i	-1.71	-5.9%
O=c1c2ccccc2nc(-c2ccc(Cl)cc2)n1C1CCS(=O)(=O)C1 (stereo not given)	i	.	-0.7%
Cn1c(C(C#N)/C(=N\S(=O)(=O)c2cccs2)c2ccccc2)nc2ccccc21 (stereo not given)	i	-0.84	-9.7%
CCN(CC)S(=O)(=O)C1CCS(=O)(=O)C1 (stereo not given)	i	-0.26	-3.9%
COCCNS(=O)(=O)c1cccc2cccnc12	i	2.88	-6.6%
CC(C)NS(=O)(=O)c1ccc(OCC(=O)Nc2ccc3c(c2)OCO3)c(Cl)c1	i	0.66	-0.9%
Cc1cc(C)n2c(SCC(=O)Nc3cc(C)on3)nnc2n1	i	-0.92	0.8%
O=C(NC(Cc1ccccc1)C(=O)N1CCN(c2ccccn2)CC1)c1ccco1 (stereo not given)	i	2.14	-4.9%
Nc1nc(COc2ccc3ccccc3c2)cs1	i	-1.1	-4.1%
COc1cc(OC)c(NC(=O)CS(=O)(=O)Cc2nc(-c3ccc(C)cc3)oc2C)cc1Cl	i	-0.69	3.7%
COC(=O)c1ccccc1NC(=O)c1c(Br)cnn1C	i	.	3.7%
O=C1N=c2ccccc2=C1c1sc(=S)n(CC2CCCO2)c1O (stereo not given)	i	-0.31	0.4%
COc1ccc(OC)c(NC(=O)CN2CCN(C(=O)c3ccco3)CC2)c1	i	-1.23	3.2%
Cn1c(=O)c2c(-c3ccccc3F)c3c(nc2n(C)c1=O)-c1ccccc1C3O (stereo not given)	i	.	0.4%
Cc1ccc(NS(=O)(=O)N(C)C)cc1	i	.	9.3%
COc1ccc(OC)c(NC(=O)c2c(NC(=O)CNCc3ccco3)sc3c2CCC3)c1	i	-0.16	-1.9%

Following part.
mol	MT1-MMP reporter	WNV NS2B-NS3 inh	Hsc70 ATP site
C=CCn1c(SCn2nnc3ccccc3c2=O)nnc1-c1ccc(Cl)cc1	i	0.52	-0.9%
NC(=O)c1ccc(-n2nnnc2SCc2ccccc2)cc1	i	0.02	-11.0%
COC(=O)C1=C(CSc2nncn2C)NC(=O)NC1c1cc(C)ccc1C (stereo not given)	i	-0.54	-0.5%
CCC(C)OC(=O)c1[nH]c2c(c1C)C(=O)CC(c1ccc(N(C)C)cc1)C2 (stereo not given)	i	-1.43	-0.8%
COc1cccc(N2CCN(C(=O)c3ccc(N4C(=O)NC5CC4(C)Oc4ccccc45)cc3)CC2)c1 (stereo not given)	i	-1.24	5.7%
Cc1cc2oc(C(=O)N(Cc3ccco3)C3CCS(=O)(=O)C3)cc(=O)c2cc1Cl (stereo not given)	i	0.99	-3.3%
CCOC(=O)NCc1ccc(S(=O)(=O)Nc2ccccc2C)cc1	i	1.6	-4.8%
CC(O)CNc1nc2c(c(=O)n(C)c(=O)n2C)n1C/C=C/c1ccccc1 (stereo not given)	i	-0.9	-3.1%
Cc1cc(C(=O)OCC(=O)NC2CCS(=O)(=O)C2)c(C)n1-c1ccccc1 (stereo not given)	i	1.63	4.7%
COc1ccc(OC)c(Nc2nc(C3CC3)nc3c2nnn3Cc2ccccc2)c1	i	.	-1.1%
COc1ccc(C(=O)COc2ccc(NC(C)=O)cc2)cc1	i	-0.37	3.6%
Cc1ccc(S(=O)(=O)CCc2nnc(NC(=O)c3ccccn3)s2)cc1	i	3.48	0.1%
O=C(OCCCC(=O)N1CCOCC1)c1ccccc1	i	0.12	-2.8%
CN(C)C=Nc1nonc1-c1ncn[nH]1	i	-1.17	3.2%
Clc1ccc(-c2nnc(-c3ccccc3Cl)o2)cc1	i	1.12	0.5%
CC1Cc2ccccc2N1C(=O)c1cc2sccc2n1Cc1ccccc1 (stereo not given)	i	.	4.6%
Cc1cccc(C(=O)Nc2ncc(CN3CCOCC3)s2)c1	i	-1.37	1.8%
CCOCCCNC(=O)C(c1ccc(C)cc1)N(Cc1ccc2c(c1)OCO2)C(=O)CNC(C)=O (stereo not given)	i	.	7.9%
COC(=O)CSc1nnc(-c2ccccc2O)n1-c1ccc(C)cc1	i	-0.68	-5.2%
Cc1ccc(S(=O)(=O)Nc2nc3ccccc3nc2NCc2ccco2)cc1	i	0.49	22.4%
COc1ccc(S(=O)(=O)N(CCc2ccccc2)CC(=O)O)cc1OC	i	-0.84	-3.4%
Cc1ccccc1-c1nc(-c2cccnc2)no1	i	-0.35	3.1%
CCCOc1ccc(N2C(=O)CC(N3CCC(C(=O)OCC)CC3)C2=O)cc1 (stereo not given)	i	1.22	0.9%
O=C1CC(c2ccccc2)n2nc(NC(=O)c3cccnc3)nc2N1 (stereo not given)	i	0.34	-2.4%
COc1ccc(OCc2nc(N)nc(Nc3cccc(C)c3C)n2)cc1	i	1.09	2.9%

Next structures.
mol	MT1-MMP reporter	WNV NS2B-NS3 inh	Hsc70 ATP site
COc1cc(-c2nc(-c3ccc(NC(=O)c4ccc5c(c4)OCO5)cc3)no2)cc(OC)c1OC	i	0.42	-17.2%
Cc1cccc(NC(=O)CSc2nnc(-c3ccncc3)n2C)c1	i	1.67	1.0%
NNC(=O)COc1cccc2cccnc12	i	.	-0.8%
Cc1noc(C)c1COc1cccc(C(=O)Nc2ccc(OCc3ccccc3)cc2)c1	i	.	-2.1%
COc1ccc(CSc2nnc(CNS(C)(=O)=O)o2)cc1	i	.	0.7%
N#Cc1c(NC(=O)c2ccc(Br)o2)n(-c2ccccc2)c2nc3ccccc3nc12	i	-0.12	-13.3%
O=C(CCn1c(=O)oc2ccccc21)N1CCN(c2ccccc2Cl)CC1	i	0.06	-1.9%
Cc1cc(NC(=O)CC23CC4CC(C2)CC(CC(=O)Nc2cc(C)on2)(C4)C3)no1	i	-0.69	0.8%
COc1ccccc1NC(=O)CCSc1nnnn1C	i	0.51	-5.1%
Cc1ccc(NCCNc2ccc(C)cc2)cc1	i	1.37	2.7%
CCCC(=O)c1cc(F)c(N2CCN(C(=O)OCC)CC2)cc1C	i	1.38	0.1%
CC(=O)NC1CC2CCCC(C1)N2CC(=O)Nc1ccccc1 (stereo not given)	i	0.54	2.6%
CCOc1ccc(S(=O)(=O)N(CC(=O)O)c2ccccc2)cc1	i	1.84	101.5%
O=C(NCCCNC(=O)NC1CCCCC1)NC1CCCCC1	i	-0.68	-1.0%
COc1ccc(NC(=O)c2c(F)c(F)c(F)c(F)c2F)cc1Cl	i	-1.13	-3.8%
COc1cccc(OCC(=O)Nc2ccccc2C(N)=O)c1	i	-0.6	6.1%
O=C(NCCN1CCN(Cc2ccccc2)CC1)C1CC(=O)N(C2CCCC2)C1 (stereo not given)	i	2.78	-6.0%
O=C(NCc1cccnc1)c1cn(-c2ccccc2)nc1-c1cccs1	i	1.07	-0.9%
Cn1cnnc1-c1cccc(NS(=O)(=O)c2ccc(N3CCCC3=O)cc2)c1	i	-0.11	-0.7%
CCOC(=O)N1CCN(C(=O)CNC(=O)Cc2ccc(Cl)cc2)CC1	i	-1.69	4.1%
COc1ccc(C(C#N)Nc2ccccc2C)cc1 (stereo not given)	i	.	0.5%
N#CCCSc1ccccc1NC(=O)c1ccc(S(=O)(=O)N2CCCC2)cc1	i	1.82	-1.0%
CCOC(=O)c1cccc(NC(=O)C2CCCN(S(=O)(=O)c3c(C)n[nH]c3C)C2)c1 (stereo not given)	i	1.54	-8.4%
CC(C)c1nnc(NC(=O)c2ccc(N3C(=O)CCC3=O)cc2)s1	i	0.54	2.6%
COc1ccc(C2(C(=O)N3CCOCC3)CCOCC2)cc1OC	i	-0.29	5.6%

6 of the compounds above, with values under each structure.
The line under a structure holds: MT1-MMP reporter, WNV NS2B-NS3 inh, Hsc70 ATP site
COc1ccc(CSc2nnc(CNS(C)(=O)=O)o2)cc1
  i, ., 0.7%
N#Cc1c(NC(=O)c2ccc(Br)o2)n(-c2ccccc2)c2nc3ccccc3nc12
  i, -0.12, -13.3%
O=C(CCn1c(=O)oc2ccccc21)N1CCN(c2ccccc2Cl)CC1
  i, 0.06, -1.9%
Cc1cc(NC(=O)CC23CC4CC(C2)CC(CC(=O)Nc2cc(C)on2)(C4)C3)no1
  i, -0.69, 0.8%
COc1ccccc1NC(=O)CCSc1nnnn1C
  i, 0.51, -5.1%
Cc1ccc(NCCNc2ccc(C)cc2)cc1
  i, 1.37, 2.7%

Continuation:
mol	MT1-MMP reporter	WNV NS2B-NS3 inh	Hsc70 ATP site
Cn1c(NC(=O)c2cccnc2)nc2ccccc21	i	0.26	-0.9%
Cc1ccc(C(=O)COc2nc(C)cc(C)c2C#N)cc1	i	.	3.2%
COc1cccc(C2CC(c3ccccc3Cl)n3nnnc3N2)c1 (stereo not given)	i	-1.76	-1.5%
Cc1ccc(NC(=O)CSc2nnc(C)n2-c2ccccc2)cc1	i	.	4.5%
CCn1c(SCC(=O)Nc2nc(C)cs2)nnc1-c1cccnc1	i	-0.93	-9.4%
CC(CCc1ccccc1)NC(=O)c1cncc(Br)c1 (stereo not given)	i	.	0.5%
COc1ccc(-c2cc(C(F)(F)F)nc(SCCC(=O)N3CCCC3)n2)cc1	i	.	-2.1%
Cc1ccc(-c2nnc3n2N=C(c2ccccc2Br)CS3)cc1	i	0.05	-9.7%
COc1cc(C(=O)NCCC2=CCCCC2)cc(OC)c1OC	i	-0.84	1.4%
COCCNC(=O)c1cn(Cc2c(F)cccc2Cl)nn1	i	.	1.8%
CCOC(=O)NC(Nc1nnc(C)s1)(C(=O)OCC)C(F)(F)F (stereo not given)	i	-0.62	-1.2%
CCc1nc2ccccc2n1CCC(C)C	i	0.08	-2.2%
O=C(CSc1nc(-c2ccccc2)c(-c2ccccc2)[nH]1)NCCN1C(=O)CSC1=O	i	.	3.2%
CCCSc1nsc(SCCC)c1C(N)=O	i	0.04	-3.6%
C=CCc1cc(C)ccc1OCC(O)CN1CCN(c2ccccc2)CC1 (stereo not given)	i	-1	4.0%
Cc1ccccc1Cn1c(CN2CCN(C(=O)c3ccco3)CC2)nc2c1c(=O)n(C)c(=O)n2C	i	-0.77	1.0%
CCOC(=O)C1C(=O)C(C(=O)OCC)C(c2cccnc2)NC1c1cccnc1 (stereo not given)	i	-0.03	-2.9%
COc1ccc(C(=O)NCc2ccccc2OC)cc1	i	-0.38	5.0%
Cc1cc(Cl)ccc1Oc1cccc(C(=O)/C(C#N)=C/N(C)C)c1	i	.	-2.0%
Cc1ccc(-c2cc(C(=O)NC3=NCCS3)c3cc(Br)ccc3n2)o1	i	-1.17	-18.4%
COc1ccc(-n2nnc3c(=O)n(CC(=O)OCc4ccccc4)cnc32)cc1	i	-0.37	-0.5%
COC(=O)COc1ccc(S(=O)(=O)NC2CCCCCC2)cc1	i	0.24	-6.9%
COC(=O)Nc1ccc(S(=O)(=O)Nc2ccc(O)cc2)cc1	i	.	2.6%
CCOCCOC(=O)CCSc1n[nH]c(=O)[nH]c1=O	i	-0.79	4.9%
COC(=O)NCc1ccc(S(=O)(=O)N2CCOCC2)cc1	i	0.71	0.2%

(further entries)
mol	MT1-MMP reporter	WNV NS2B-NS3 inh	Hsc70 ATP site
CCOP(=O)(c1ccccc1)C1(C#N)CCCC1 (stereo not given)	i	-0.5	-0.3%
CNC(=O)CN1C(=O)C2C3C=CC(C3)C2C1=O (stereo not given)	i	-0.07	-8.0%
COc1ccc(OC)c2sc(NC(=O)C3CC3)nc12	i	-1.16	0.2%
CSCC[C@H](NC(=O)Nc1cccc(C(F)(F)F)c1)C(=O)O	i	1.9	-4.8%
COc1ccc([C@@H]2Sc3ccccc3N(CCN(C)C)C(=O)[C@@H]2OC(C)=O)cc1	i	0.45	-4.8%
CCOC(=O)C1C2C=CC3(CN(Cc4cccs4)C(=O)C13)O2 (stereo not given)	i	-0.39	-1.1%

Bioassay records: PubChem BioAssay, several laboratories

Only part of the results is shown; count on the stated rates, not on these rows.
